S aureus helic: inhibitors of S. aureus replicative helicase, primary screen, biochemical, fluorescence unwinding readout. 120,000 compounds, 0.05% hits. purified S. aureus helicase, fluorescence unwinding assay; about half of the hits fall short of the stated cut. replicative DNA helicase (DnaC/DnaB), Staphylococcus aureus. inhibition, %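 (tested at about 80 µM)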;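 active means both duplicates at 50% or more, or one of them with a favoured structure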;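 further: 0% = mean of negative control wells and 100% = mean of positive control wells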
MgrA DNA FP: S. aureus MgrA activity modulators, primary screen, biochemical, S. aureus Newman, fluorescence polarization; inhibition, %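 (about 10 µg/mL by stock and volumes)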; MgrA-DNA binding; 84,000 compounds, 0.13% hits;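 active means above 50% in either of two replicates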;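 further: 0% = protein plus DNA without compound and 100% = DNA alone without protein; higher means less MgrA bound to DNA so lower polarization; one replicate is shown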
* marks the source's active call; other numbers are inactive results; x = no result given; & = joins results of further samples.

SMILES | S aureus helic | MgrA DNA FP
O=c1c2cc(NC(=S)N3CCCCCC3)ccc2nc2n1CCCCC2 | 18.0 | x
COc1ccc(NC(=O)c2cc3cc(Br)ccc3oc2=O)c(OC)c1 | x | -0.7
N#CCC(=O)Nc1ccccc1Oc1cc(Cl)ccc1Cl | x | -2.0
CSc1ccc(/C=C(\C#N)C(=O)NC2CCCCC2)cc1 | -14.0 | 3.3
CN=C(C)/C(C(=O)OC)=C(/O)c1ccccc1F | x | -0.6
Nc1n[nH]c(S(=O)(=O)Cc2ccccc2)n1 | 3.0 | x
CC(C)S(=O)(=O)C/C(N)=N/OCc1c(Cl)cccc1Cl | x | -2.6
CC(=O)NCCN1C(=O)S/C(=C\c2cccs2)C1=O | 14.0 | x
Cc1[nH]c2ccccc2c1CCN1C(=O)CCC1=O | 10.0 | 1.1
NC1=NC2(CCSC2)n2c(nc3ccccc32)N1 (stereo not drawn) | -3.0 | x
CCOC(=O)c1c(NC(C)=O)sc2c(NC(C)=O)cccc12 | 6.0 | -0.9
N#C/C(=C\c1ccc(-c2ccc(S(=O)(=O)N3CCOCC3)cc2)o1)C(=O)NC1CC1 | 34.0 | x
CC(C)Oc1ccc(CSC(=N)N)cc1 | 0.0 | x
CC(=O)Oc1ccc(N(C(C)=O)S(=O)(=O)c2cccs2)c(C)c1 | -30.0 | x
O=C1NC(=Nc2ccccc2)S/C1=C\c1ccc(C(=O)O)cc1 | -5.0 | 2.9
C=CCn1c(Cc2ccccc2)nnc1SCC(=O)N1CCc2ccccc21 | 2.0 | -2.4
Cc1ccc(NC(=O)CSc2nc(=O)cc(N)n2Cc2ccco2)cc1 | -33.0 | x
O=C1Nc2cc(C(=O)N3CCCC3)ccc2S/C1=C\c1ccccc1 | 6.0 | 0.2
CCOC(=O)c1oc2ccccc2c1Cn1ncc(Cl)c(Cl)c1=O | -12.0 | x
Cc1ccc(C(=O)Nc2nccc(-c3ccc4c(c3)OCCO4)n2)cc1 | x | -3.1
Cc1nn2c(CN(C(=O)c3ccco3)c3ccccc3)nnc2c2ccccc12 | -6.0 | x
O=C(/C=C/c1ccco1)OCCN1C(=O)c2ccccc2C1=O | 9.0 | x
CCc1ccc(-c2csc(Nc3ccc(S(=O)(=O)Nc4cc(OC)nc(OC)n4)cc3)n2)cc1 | 19.0 | 0.9
CNC(=O)c1ccccc1NC(=O)CC1(CC(=O)O)CCCCC1 | -8.0 | x
Cc1ccc(OCC(=O)O)c2c1CCC2 | x | 3.7
O=C(c1cccnc1NCCc1ccccc1)N1CCCC1 | 12.0 | 3.6
COc1ccc(N=Cc2ccc3c(c2)OCCO3)cc1 | 7.0 | 2.0
CN(N)c1nc(-c2ccccc2)cc(-c2ccccc2)n1 | x | 1.1
CCC1(C)Cc2c(sc3nc4n(c(=O)c23)CCCS4)CO1 (stereo not drawn) | 9.0 | 3.4
Cc1cc(NC(=O)Cc2ccccc2)ccc1O | -24.0 | x
CCCOc1ccc2oc(=O)c3c(c2c1)CCCN3C(=O)CN1CC(C)CC(C)C1 (stereo not drawn) | 29.0 | x
Fc1c(F)c(-n2cccn2)c(F)c(F)c1-c1c(F)c(F)c(-n2cccn2)c(F)c1F | 10.0 | 23.1
O=C(Cn1ccc(C(F)(F)F)n1)c1ccc(Cl)cc1 | x | -0.6
Nc1ccccc1CN1CCCC1 | 0.0 | 9.5
COCc1nc2c([nH]1)c(=O)n(C)c(=O)n2CC(C)C | x | -0.1
c1nnc(-c2ccc3c(c2)OCO3)o1 | 13.0 | x
Cc1c(C(=O)O)cnn1-c1ccccc1 | x | -13.6
O=C(CSc1ccc(Br)cc1)c1ccc(Cl)s1 | 5.0 | -9.0
Cn1cc(S(=O)(=O)N2CCOCC2)cc1C(=O)N1CCN(c2cccc(C(F)(F)F)c2)CC1 | 8.0 | x
Cc1cccc(OCC(=O)N2CCCc3ccccc32)c1 | 9.0 | 1.8
O=C(c1cc(=O)c2ccccc2o1)N1CCc2ccccc21 | -17.0 | x
CCOc1ccc(OCCN2C(=O)NC(Cc3c[nH]c4ccccc34)C2=O)cc1 (stereo not drawn) | -4.0 | x
O=C(c1ccccc1)N(Cc1ccco1)CC(O)Cn1c2ccccc2c2ccccc21 (stereo not drawn) | 6.0 | x
COc1ccc(N2CC(NC(=O)NCC3CCCO3)CC2=O)cc1OC (stereo not drawn) | -15.0 | x
COc1ccc(CC(=O)n2[nH]c(=O)c3ccccc3c2=O)cc1OC | 22.0 | x
CC(=O)NCS(=O)(=O)c1ccc(C)cc1 | 15.0 | x
CCN(CC(=O)NCc1cccs1)c1ccc(S(=O)(=O)N2CCCC2)cn1 | 9.0 | x
CS(=O)(=O)Nc1ccc(Br)cc1 | 12.0 | -1.6
CCC(=O)NC1CC2C(=O)Nc3c(C)cccc3C2OC1=O (stereo not drawn) | 0.0 | 5.4
Cc1ccc(-c2noc(-c3c(C)noc3C)n2)cc1 | x | -3.1
CC(C)CC1NC(=O)N(C)C1=O (stereo not drawn) | x | -0.3
COC(=O)C(C)(C)Oc1ccc(C)c2c1CCC2 | x | -2.1
CCCn1c2ccccc2c2cnn(CC(=O)N(C)Cc3ccccc3)c(=O)c21 | -12.0 | x
O=C1CCC(c2ccccc2)=NN1Cc1c(F)cccc1Cl | -5.0 | 0.5
C=CCN(C#N)c1nc(N2CCCCC2)nc(N2CCCCC2)n1 | 7.0 | x
COc1ccc2c(C)cc(SCC#N)nc2c1 | -69.0 | x
CCOC(=O)c1c(C)n(C)c2ccc(O)c(CN3CCC(C)CC3)c12 | -15.0 | 1.4
Nc1ccnn1Cc1ccccn1 | -8.0 | x
Cc1sc2nc(CSC(C)C(=O)OCn3nnc4ccccc4c3=O)[nH]c(=O)c2c1C (stereo not drawn) | -6.0 | x
Cc1csc(SCCCn2c(=O)[nH]c3ccccc32)n1 | 4.0 | x

More compounds follow:
SMILES | S aureus helic | MgrA DNA FP
Cc1ccc(-n2c(-c3cnccc3C(F)(F)F)noc2=O)c(C)c1 | -15.0 | x
Cc1ccc2nc(NC(=O)/C=C/c3ccccc3)sc2c1 | 6.0&15.0 | 1.4
Cc1ccc(N(C)C(=O)c2cc(S(=O)(=O)N3CCCC3)cn2C)cc1 | -1.0 | 1.0
Cc1cc(C)n2nc(C(=O)Nc3cccnc3)cc2n1 | 9.0 | -0.8
COc1cc(C(=O)Nc2ccc3oc(-c4ccc(C)cc4)nc3c2)cc(OC)c1OC | x | 2.5
Brc1ccc(CSc2nnc(-c3ccc4c(c3)OCO4)o2)cc1 | -7.0 | x
CCN(CC)C(=O)CSc1nc(N)c(C(=O)Nc2ccc(OC)cc2)s1 | 5.0 | x
CNc1nnc(Cl)c2ccccc12 | 14.0 | x
c1ccc(-c2noc(-c3csnn3)n2)cc1 | x | 0.1
CCCCC1(C)OC(=O)C(=Cc2ccc(F)cc2)C(=O)O1 (stereo not drawn) | 2.0 | 11.9
NC(=O)C1CCCN1C(=O)CCC(=O)O (stereo not drawn) | 6.0 | -3.8
c1cc(-c2nn[nH]n2)cs1 | x | -2.7

The final 5 compounds of the section before lead into the next:
SMILES | S aureus helic | MgrA DNA FP
CNc1nnc(Cl)c2ccccc12 | 14.0 | x
c1ccc(-c2noc(-c3csnn3)n2)cc1 | x | 0.1
CCCCC1(C)OC(=O)C(=Cc2ccc(F)cc2)C(=O)O1 (stereo not drawn) | 2.0 | 11.9
NC(=O)C1CCCN1C(=O)CCC(=O)O (stereo not drawn) | 6.0 | -3.8
c1cc(-c2nn[nH]n2)cs1 | x | -2.7
COC(=O)c1sc2ccccc2c1NC(=O)COc1ccc(Cl)cc1 | 14.0 | x
O=C(COc1ccc(F)cc1)NCCCn1ccnc1 | 11.0 | 1.6
COc1c(Cl)cnn(-c2cccc(C)c2)c1=O | 13.0 | 3.5
Cc1nc2ccc(S(=O)(=O)NC(CC(C)C)C(=O)NC3CCCCCC3)cc2s1 (stereo not drawn) | 5.0 | -1.0
O=C1/C(=C/NCc2ccco2)S(=O)(=O)N(Cc2ccccc2)c2ccsc21 | -31.0 | x
COc1ccc(N2C(=O)/C(=C\c3ccco3)N=C2SCC(N)=O)cc1Cl | -5.0 | x
O=S1(=O)N=CNc2ccc(S(=O)(=O)NCc3ccccc3)cc21 | -13.0 | x
O=c1[nH]c(Nc2ccc3c(c2)OCO3)nnc1Cc1ccc(F)cc1 | 2.0 | x
Oc1ccc(Br)cc1C1CC(c2ccccc2)=NC(c2ccco2)N1 (stereo not drawn) | -4.0 | 7.1
COC(=O)NC(=O)c1ccc(Cl)cc1 | -6.0 | 1.5
Nc1ccc(C(=O)NCC2CCCN3CCCCC23)cc1 (stereo not drawn) | 1.0 | -1.8
Cc1onc(-c2c(Cl)cccc2Cl)c1C(=O)NCCS(=O)(=O)c1ccccc1 | x | 3.5
Cc1ccc(/C=C/C(=O)Nc2ccc3nc4n(c(=O)c3c2)CCCC4)cc1 | 2.0 | x
CCn1c(=O)c(=O)[nH]c2cc(S(=O)(=O)N(C)C)ccc21 | 12.0 | x
NS(=O)(=O)c1ccc(C2CCCCC2)cc1 | 6.0 | 1.6
CCN(CC)S(=O)(=O)c1ccc(-c2nc3ccccc3s2)cc1 | -12.0 | x
CCN1C(=O)c2cccc3c(S(=O)(=O)NCCCn4ccnc4)ccc1c23 | 13.0 | x
c1ccc2c(c1)nc(N1CCCC1)c1nncn12 | 10.0 | 0.5
COc1ccc(-c2cn3nc(N4CCCC(C(=O)Nc5cc(Cl)ccc5C)C4)sc3n2)cc1 (stereo not drawn) | 15.0 | x
CN1C(=O)NC(c2ccccc2)C2=C1CN(CCc1ccccc1)C2=O (stereo not drawn) | 11.0 | -1.3
COc1cccc(NC(=O)C(c2ccccc2)N2CCCCC2)c1 (stereo not drawn) | 5.0 | x
Cc1nc(-c2ccccc2)sc1C(=O)NCC1CCCO1 (stereo not drawn) | -20.0 | x
CCNc1nnc(-c2ccccc2OC)s1 | 6.0 | -2.0
CC(=O)NCc1ccc(C2CCCCC2)cc1 | 11.0 | -1.1

3 structures already listed, arranged by formula weight, smallest number first.
SMILES | S aureus helic | MgrA DNA FP
COc1cccc(NC(=O)C(c2ccccc2)N2CCCCC2)c1 (stereo not drawn) | 5.0 | x
CN1C(=O)NC(c2ccccc2)C2=C1CN(CCc1ccccc1)C2=O (stereo not drawn) | 11.0 | -1.3
COc1ccc(-c2cn3nc(N4CCCC(C(=O)Nc5cc(Cl)ccc5C)C4)sc3n2)cc1 (stereo not drawn) | 15.0 | x

(list continues)
SMILES | S aureus helic | MgrA DNA FP
COc1cc(Cl)c(C)cc1NCC(=O)Nc1cccnc1Cl | -16.0 | -1.9
CCOC(=O)C1CCCN(C(=O)c2cccc(NC(=O)C(CC)CC)c2)C1 (stereo not drawn) | 1.0 | -1.4
Cn1nc(C(F)(F)F)c(C#N)c1Oc1ccccc1 | x | 2.7
Cc1nc(COc2ccccc2Cl)sc1C(=O)/C=C/N(C)C | x | -3.2
CC(C)NC(=O)COc1cccc2ccccc12 | 8.0 | x
S=C(Nc1ccccn1)NC1CC2CCC1C2 (stereo not drawn) | -19.0 | x
CCN(CC)C(=O)C12CC3CC(CC(Cl)(C3)C1)C2 | 2.0 | x
CSc1ccc(/C=N/NC(=O)C2CC2)cc1 | 22.0 | 1.8
O=C(/C=C/c1cccc(F)c1)NCCCn1ccnc1 | 13.0 | 0.8
Cc1ccc(S(=O)(=O)/N=S(\C)c2ccccc2)cc1 (stereo not drawn) | x | -2.7
Cc1cc2ncn(CCc3ccccc3)c2cc1C | 4.0 | 1.5
Cc1c(C(=O)O)oc2ccc3nc(N(C)C)sc3c12 | 10.0 | -2.5

Entries of single compounds, quoted from the list:
CCN(CC)C(=O)C12CC3CC(CC(Cl)(C3)C1)C2 is listed as S aureus helic: 2.0; MgrA DNA FP: x
Cc1ccc2nc(NC(=O)/C=C/c3ccccc3)sc2c1 is listed as S aureus helic: 6.0&15.0; MgrA DNA FP: 1.4

Next records:
SMILES | S aureus helic | MgrA DNA FP
CC1=NN(C(=O)COc2ccccc2C)C(O)(c2ccc(Cl)cc2)C1 (stereo not drawn) | 25.0 | 4.6
CN(C)S(=O)(=O)c1cccc(-c2cn3cccnc3n2)c1 | 6.0 | x
Cc1cccc2c(C(=O)O)cc(-c3cccnc3)nc12 | 5.0 | -2.5
COc1cccc(NS(=O)(=O)c2ccc3[nH]cc(C(=O)N4CCc5ccccc54)c(=O)c3c2)c1 | 10.0 | x
Nc1nnc(SCC(=O)N2CCc3ccccc32)s1 | -17.0 | x
CCC(NS(=O)(=O)c1c(C)[nH]c(=O)[nH]c1=O)C12CC3CC(CC(C3)C1)C2 (stereo not drawn) | 4.0 | -1.6
CSc1sc(Cl)c(Cl)c1S(=O)(=O)C(C)C | 7.0 | x
Nc1[nH]ncc1-c1ccsc1 | x | -1.6
NS(=O)(=O)c1ccc(N=Cc2c(O)[nH]c3ccccc23)cc1 | 11.0 | 1.0
CCOC(=O)N1CCC(NC(=O)C2CCCN(C(=O)N3CCOc4ccccc43)C2)CC1 (stereo not drawn) | 4.0 | -2.5
O=C(COC(=O)Cc1ccc(Br)cc1)NCc1ccco1 | -10.0 | x
O=C1CCC(=O)N1C1CCCCC1 | x | -1.6
COC(=O)c1c(C)[nH]c(C(=O)C(C)N2CCCc3ccccc32)c1C (stereo not drawn) | 0.0 | x
CC(=O)N1CCC(C(=O)OCC#N)(c2ccccc2)CC1 | 7.0 | x
CSc1cccc(N/C=C(/C#N)c2ccsc2)c1 | x | -1.4
Cc1c(C(=O)NCC(C)C)oc2c1ccc1ccccc12 | -2.0 | x
Cn1nnc2c(sc3nc(N4CCOCC4)c4c(c32)CCCC4)c1=O | 17.0 | 4.2
Clc1ccc(Oc2ncnc3c2nnn3Cc2ccccc2)cc1 | x | -1.9
COC(=O)c1sccc1-c1ccc(CN2CCN(c3ccccc3)CC2)o1 | x | -2.0
CCOC(=O)c1c(-c2cccs2)csc1N | x | 0.5
O=c1[nH]c(=O)n(Cc2ccccc2)c2ncn(Cc3ccco3)c12 | -16.0 | x

Some of the compounds tested; count on the stated rates, not on these rows.
